Lassa entry inh: qHTS for Inhibitors of binding or entry into cells for Lassa Virus. AID 540256, 2011. Potency, µM (titrated, usually from 37.9 µM), inactives show at the top dose activity change, negative = inhibition, most hits filed as inhibitors. 300,000 compounds, 1.2% hits. Lassa virus pseudotype entry inhibition, cell reporter; control for the full effect not named in the record; active means well fitted inhibition curve with a large enough effect; inconclusive means small, poorly fitted or top-dose-only effect, or effect the other way; inactive means flat fitted curve, though single readings scatter; tested in HEK293 cells; further: on the % scale 0 is the no-effect control and ±100 the full control effect; nearly all actives have a fitted effect of over 50% in size; luciferase read-out
Marburg entry inh: qHTS for inhibitors of binding or entry into cells for Marburg Virus; Marburg virus pseudotyped entry inhibition, cell reporter; control for the full effect not named in the record; about a third of the inactives were read at about 46 µM; Potency, µM (top dose mostly 37.8 µM), without a hit: at the top dose activity change, negative = inhibition, hits mostly inhibitors; 300,000 compounds, 1.8% hits; active = well fitted inhibition curve with a large enough effect; inconclusive = small, poorly fitted or top-dose-only effect, or effect the other way; inactive = flat fitted curve, though single readings scatter; tested in HEK293 cells; about a fifth of its hits are not listed in these tables; further: on the % scale 0 is the no-effect control and ±100 the full control effect; luciferase read-out
Cruzain Triton: qHTS Assay for Promiscuous and Specific Inhibitors of Cruzain (with detergent) | Cruzipain (Trypanosoma cruzi), P25779 | purified cruzain, Z-FR-AMC fluorescence, 0.01% Triton | Potency, µM, for inactives: max response, negative = inhibition, most hits filed as inhibitors | 200,000 compounds, 0.43% hits;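 further: plate controls were neutral wells for no effect and buffer without enzyme for full effect; nearly all actives have a fitted effect of over 40% in size; top concentration of the series not given in the record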
Target sequence (P25779 123-467 limits assumed): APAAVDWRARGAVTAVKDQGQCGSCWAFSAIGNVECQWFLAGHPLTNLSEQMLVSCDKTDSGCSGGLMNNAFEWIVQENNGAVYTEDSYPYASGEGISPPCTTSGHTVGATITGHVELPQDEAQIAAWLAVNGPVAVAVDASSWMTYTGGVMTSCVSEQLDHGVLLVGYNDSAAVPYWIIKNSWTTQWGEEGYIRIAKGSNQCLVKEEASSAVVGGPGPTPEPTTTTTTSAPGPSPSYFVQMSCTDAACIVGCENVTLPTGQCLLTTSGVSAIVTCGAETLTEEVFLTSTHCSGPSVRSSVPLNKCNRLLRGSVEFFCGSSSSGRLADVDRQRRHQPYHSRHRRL
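Enzyme 1.5 nM, Z-FR-AMC 2 uM, NaOAc 100 mM pH 5.5, DTT 5 mM, Triton X-100 0.01%; 15 min RT compound preincubation; kinetic ex360/em450, 60 s delta.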
Cruzain noTriton: qHTS Assay for Promiscuous and Specific Inhibitors of Cruzain (without detergent). Potency, µM, for inactives: max response, negative = inhibition, hits mostly inhibitors. AID 1476, 2009. 200,000 compounds, 2.3% hits. Cruzipain (Trypanosoma cruzi), P25779. purified cruzain, Z-FR-AMC fluorescence, no detergent;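 further: plate controls were enzyme without inhibitor for no effect and buffer without enzyme for full effect; nearly all actives have a fitted effect of over 40% in size; top concentration of the series not given in the record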
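Detergent-free condition (0.00005% Triton X-100) in acetate buffer pH 5.5 with DTT. 1.5 nM enzyme and compound were pre-mixed 15 min, then 2 uM Z-FR-AMC substrate added; reaction progress from fluorescence change between first and third reads (60 s).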
RE007 growth inh: qHTS Assay for Inhibitors of the HIV-1 protein Vpr | S. pombe RE007 Vpr strain, BacTiter-Glo ATP luminescence, 24 h; control for the full effect not named in the record | Potency, µM (doses to about 92.2 µM), for the others: top-dose activity change, negative = less growth | 360,000 compounds, 0.21% hits | AID 651644, 2012; active = well fitted falling curve with a large enough effect; inconclusive = small, poorly fitted or top-dose-only effect; inactive = no such curve, though single readings can be large or run the other way;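 further: on the % scale 0 is the no-effect control and ±100 the full control effect; nearly all actives have a fitted effect of over 50% in size; the assay follows cell death caused by Vpr and the record does not say whether a fall means rescue or toxicity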
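Fission yeast strain RE007, carrying one chromosomally integrated HIV-1 vpr copy, was seeded at OD 0.01 in PMG+AL medium with 23 nL pinned compound. After 24 h at 30 °C and 99% humidity, viability was read by BacTiter-Glo luminescence.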
NS1 inh: qHTS Assay for Inhibitors of Influenza NS1 Protein Function | 270,000 compounds, 0.4% hits | S. cerevisiae slowed by influenza A NS1, growth recovery by OD600 | Potency, µM (highest dose often 46.1 µM), without a hit: top-dose activity, positive = more growth; active means well fitted rising curve with a large enough effect; inconclusive means small, poorly fitted or top-dose-only effect; inactive means no such curve, though single readings can be large or run the other way; further: nearly all actives have a fitted effect of over 50% in size
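A cell-based growth assay was used: compounds that relieve NS1-induced slow growth of budding yeast raise OD600. Assay medium was yeast nitrogen base with ammonium sulphate and -URA supplement, pH 6.0, with 2% galactose.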
StopGo reporter: High Throughput Screening for Foot and Mouth Disease Virus Antivirals. AID 1159524, 2015. 410,000 compounds, 1.2% hits. Potency, µM (doses to about 57.9 µM), for inactives: top-dose signal change, negative = less light. human cells with a luciferase reporter of 2A StopGo recoding; control for the full effect not named in the record; active = well fitted falling curve with a large enough effect; inconclusive = small, poorly fitted or top-dose-only effect; inactive = no such curve, though single readings can be large or run the other way; tested in HEK293T cells; further: on the % scale 0 is the no-effect control and ±100 the full control effect; nearly all actives have a fitted effect of over 45% in size; luciferase light after 4 h
SARS PLpro yeast: qHTS of Yeast-based Assay for SARS-CoV PLP; S. cerevisiae expressing SARS-CoV PLpro, growth rescue; control for the full effect not named in the record; 330,000 compounds, 0.19% hits; Potency, µM (top dose mostly 32.9 µM), inactives show at the top dose activity, positive = growth rescue; active means well fitted rising curve with a large enough effect; inconclusive means small, poorly fitted or top-dose-only effect; inactive means no such curve, though single readings can be large or run the other way; further: 0% is about no effect; nearly all actives have a fitted effect of over 55% in size; growth read by luminescence after 48 h
An asterisk follows results filed as active; u = inconclusive; x = no result given; & = joins results of further samples; [ ] = another dose, or the depositor's remark. Unless noted, the call rests on the fitted dose curve; in most records, active means well fitted curve in the direction sought with a large enough effect; inconclusive means small, poorly fitted or top-dose-only effect, or another doubt; inactive means no such curve, though single readings can be large; an effect the other way counts as inactive or inconclusive. Potency means the concentration at half of the fitted maximal effect.

#	SMILES	Lassa entry inh	Marburg entry inh	Cruzain Triton	Cruzain noTriton	RE007 growth inh	NS1 inh	StopGo reporter	SARS PLpro yeast
1	Cc1c(N/C(=N/S(=O)(=O)c2ccccc2)c2ccc(Cl)cc2)c(=O)n(-c2ccccc2)n1C	4%	10%	-1.4%	-11%	0%	-3%	19%	15%
2	O=Cc1ccc(Oc2ccc(F)cc2)nc1	-6%[46.1 µM]	14%[46.1 µM]	x	x	2%	x	-11%	15%
3	Fc1ccc(Br)cc1/C=N/N1CCN(c2ccccc2)CC1	x	x	x	x	2%	2%	3%	1%
4	Cc1ccc(CNC(=O)Cn2c([N+](=O)[O-])cnc2C)cc1	6%	0%	1.7%	-7%	19%	5%	x	4%
5	COc1cc(/C=N/NC(=O)CCC(=O)Nc2ccc(Br)cc2)ccc1O	-17%	0%	x	x	15%	u	-4%	0%
6	CC(NC(=O)C(c1ccccc1)c1ccccc1)c1ccc(S(N)(=O)=O)cc1 (configuration not stated)	5%[46.1 µM]	u	x	x	4%	-39%	-19%	-1%
7	O=C(CN1C(=O)CSC1=O)N1CCCCC1	1%	11%	0.5%	18%	6%	3%	-11%	7%
8	CS(=O)(=O)N1CCN(c2ccc(NC(=O)c3ccccc3)cc2)CC1	-5%	-24%[46.1 µM]	x	x	-5%	x	20%	-1%
9	COCCn1c(SCC(=O)c2ccc(OC)cc2)nc2cc(C(=O)NC3CCCC3)ccc2c1=O	7%[46.1 µM]	x	0.7%	-5%	x	x	-12%	x
10	COc1ccc(C(=O)Nc2ccc(CN3CCOCC3)cc2)cc1	u	12%[46.1 µM]	2.0%	-3%	9%	-1%	40%[activator]	2%
11	O=C(COc1ccc(Cl)cc1Cl)NC(=O)N1CCOCC1	u	15%	-1.2%	-3%	-2%	1%	59%[activator]	-3%
12	Cc1ccc(Cl)cc1NC(=O)C1CCCN(S(C)(=O)=O)C1 (configuration not stated)	x	x	x	x	-8%	21%	-15%	0%
13	Cc1onc(-c2ccccc2)c1NC(=O)Nc1c(-c2ccccc2)noc1C	-1%[46.1 µM]	u	x	x	10%	x	-3%	-1%
14	CC(=O)Oc1ccc2oc3c(c2c1)C(=O)CCC3	5%	2%	0.1%	2%	-7%	-9%	17%	-1%
15	O=C(NCc1ccc2c(c1)OCO2)C1CCCN1C(=O)Nc1ccccc1 (configuration not stated)	1%	17%	3.1%	-14%	-18%	-40%	x	2%
16	CCOC(=O)CCCNC(=O)CCNC(=O)c1ccc(OCC(C)C)cc1	6%	u	x	x	9%	1%	-7%	1%
17	COc1ccc(N2C(=O)C(CC(=O)Nc3ccccc3)N(CCc3ccc(OC)c(OC)c3)C2=O)cc1 (configuration not stated)	-5%[46.1 µM]	-2%[46.1 µM]	x	x	4%	x	9%	-1%
18	CC(OC(=O)c1ccc2c(c1)OCO2)C(=O)NC1CCCCC1C (configuration not stated)	8%	u	x	x	-16%	x	-14%	4%
19	Cn1cccc1CC(=O)N/N=C/c1cc([N+](=O)[O-])ccc1Cl	-12%	1%[46.1 µM]	x	x	2%	3%	-1%	-1%
20	CCCCCCCCNC(=O)CCNC(=O)c1ccc(C(C)(C)C)cc1	13%	u	-13%	u	-3%	3%	-4%	-2%
21	COc1ccc(Br)c2c1-c1nc(NC(=O)c3ccccc3F)sc1C2	1%[46.1 µM]	-13%[46.1 µM]	-1.5%	-7%	x	x	-17%	x
22	CCOC(=O)c1sc(NC(=O)CSc2nnc(-c3ccco3)o2)c(C(=O)OCC)c1C	1%	-4%&-18%	4.1%	5%	21%	1%	-23%	-5%
23	O=C(O)c1ccc(CNCc2ccccc2F)cc1	5%	6%[46.1 µM]	x	x	-12%	2%	5%	-1%
24	CCOCCCNC(=O)c1ccccc1Br	0%	15%	3.4%	-4%	9%	15%	32%[activator]	-2%

Ordered by length of the SMILES (falling): part of the list above.
#	SMILES	Lassa entry inh	Marburg entry inh	Cruzain Triton	Cruzain noTriton	RE007 growth inh	NS1 inh	StopGo reporter	SARS PLpro yeast
22	CCOC(=O)c1sc(NC(=O)CSc2nnc(-c3ccco3)o2)c(C(=O)OCC)c1C	1%	-4%&-18%	4.1%	5%	21%	1%	-23%	-5%
15	O=C(NCc1ccc2c(c1)OCO2)C1CCCN1C(=O)Nc1ccccc1 (configuration not stated)	1%	17%	3.1%	-14%	-18%	-40%	x	2%
2	O=Cc1ccc(Oc2ccc(F)cc2)nc1	-6%[46.1 µM]	14%[46.1 µM]	x	x	2%	x	-11%	15%

New compounds follow.
#	SMILES	Lassa entry inh	Marburg entry inh	Cruzain Triton	Cruzain noTriton	RE007 growth inh	NS1 inh	StopGo reporter	SARS PLpro yeast
25	CCN(CC)S(=O)(=O)c1ccc(OC)c(NC(=O)CSc2ccccc2)c1	u	-25%	-5.3%	8%	-7%	0%	13%	3%
26	CCCCCCCC(=O)NC(Nc1ccccc1OC)C(Cl)(Cl)Cl (configuration not stated)	-22%	u	-0.7%	1%	3%	-12%	x	-4%
27	CCOC(=O)c1ccc(NS(=O)C23CC4CC(CC(C4)C2)C3)cc1 (configuration not stated)	0%	-5%	1.2%	-7%	-8%	-6%	x	-5%
28	COc1ccc(N2CCc3c(C)nc(SC)nc32)cc1	u	u	x	x	1%	-1%	-25%	-1%
29	CC(OC(=O)c1ccc(C#N)cc1)C(=O)Nc1ccc(Cl)cn1 (configuration not stated)	-13%	u	x	x	28%	x	-27%	8%
30	CCc1ccc2oc(-c3cccc(NC(=O)C(C)(C)Oc4ccc(Br)cc4)c3)nc2c1	u	u	2.0%	-26%	x	x	11%	x
31	Cc1ccc(C(=O)CCCn2nnc(-c3cccnc3)n2)cc1C	6%	0%	-0.7%	-11%	-11%	13%	-4%	-9%
32	O=C(COc1ccc(F)cc1)N1CCC(Cc2ccccc2)CC1	x	x	x	x	-8%	-2%	5%	-8%
33	COc1ccc(/C=N/NC(=O)c2nc(-c3ccccc3)cc(-c3ccccc3)n2)cc1O	u	18µM*	-7.0%	-1%	9%	6%	-10%	5%
34	Cn1c(=O)c2c(ncn2CCc2ccccc2)n(C)c1=O	x	x	x	x	14%	-2%	5%	0%
35	O=C(Nc1ccc(N2CCCC2)cc1)c1cc([N+](=O)[O-])ccc1N1CCOCC1	7%[46.1 µM]	u	x	x	-3%	19%	-8%	-6%
36	Cc1ccc(/C(O)=C2/C(=O)C(=O)N(CCN3CCOCC3)C2c2cccnc2)cc1 (configuration not stated)	1%	1%&1%	-10%	-3%	-7%	11%	-21%	16%
37	O=C(CCNC(=O)OCc1ccccc1)NC1CCCCCC1	4%	u	-4.1%	0%	5%	-1%	-13%	8%
38	O=C(CN1CCC(C(=O)c2ccc(F)cc2)CC1)NCc1ccccc1F	u	u	x	x	u	8%	u	-2%
39	COc1ccc(OCC(=O)NC2CCSc3ccccc32)cc1 (configuration not stated)	u	u	x	x	-8%	x	4%	0%
40	C[C@@H](C(=O)NCCc1c[nH]c2ccccc12)[C@H]1C[C@]1(C)[C@H](NC(=O)OCc1ccccc1)c1ccccc1	u	u	-1.4%&-2.9%	-19%&-18%	-9%	28%	-30%	1%
41	CCOC(=O)/C(C#N)=N/Nc1ccccc1C(=O)O	x	x	x	x	1%	-4%	-5%	0%
42	CCCC(=O)N1c2ncnn2C2(CCCCC2)[C@@H]2CCCC[C@@H]21	-5%[46.1 µM]	-29%[46.1 µM]	-2.0%	-4%	x	x	-15%	x
43	CN(C(=O)OCc1ccccc1)C(CC(N)=O)C(=O)O (configuration not stated)	u	6%	3.6%	3%	9%	-2%	x	-6%
44	CCN(CC)C(=O)c1ccc(-c2nnc(Nc3ccc(O)cc3)c3ccccc23)cc1	x	x	x	x	9%	-5%	-24%	6%
45	N#C[C@@H]1[C@@H]2C(=O)N(c3ccc4c(c3)OCCO4)C(=O)[C@@H]2C2c3ccccc3C=CN21 (some centres not stated)	x	x	-4.3%	u	x	26%	x	-13%
46	Cc1c(C(=O)N2CCC(C)CC2)sc2ncnc(N3CCN(c4ccccc4)CC3)c12	18%	1%	-3.0%	-3%	11%	1%	0%	3%
47	COc1ccc(CCN2CC(C(=O)NCCc3cccc(F)c3)CCC2=O)cc1 (configuration not stated)	x	x	x	x	-8%	3%	3%	-4%
48	Cc1cccc(CC(=O)Nc2sc(C(C)C)cc2C(=O)N2CCOCC2)c1	-9%	-20%	x	x	6%	-3%	-7%	-2%
49	CCCCn1c(=O)[nH]c(=O)c2c1nc(-c1cc(Br)c(OCC)c(OC)c1)n2C	x	u	x	x	12%	9%	-6%	-1%
50	O=C(CSC1=NC(=O)C(Cc2ccccc2)C(=O)N1)NC1CCCCC1 (configuration not stated)	26%	-2%	2.5%	-5%	8%	8%	x	2%
51	O=C(O)CSCC(=O)N1CCN(c2nc3cc(Cl)ccc3s2)CC1	x	x	x	x	-9%	0%	-28%	-1%
52	CCCCN=c1scc(-c2ccc3c(c2)NC(=O)CO3)n1N=C1CCCC1	u	u	-11%	-3%	13%	17%	25µM*	6%
53	Cc1ccc(-n2nnnc2CNC(=O)c2ccc3c(c2)OCO3)cc1C	-16%[46.1 µM]	21%[46.1 µM]	x	x	-9%	-6%	-15%	u
54	COCCCNC(=S)NNC(=O)C(O)(c1ccccc1)c1ccccc1	0%	-15%[14.2 µM]	x	x	2%	3%	2%	-1%
55	Cc1cc(C)c(NC(=O)CSc2nc3ccccc3nc2N2CCCCC2)c(C)c1	-10%[46.1 µM]	-15%[46.1 µM]	-2.1%	2%	x	x	0%	x
56	O=C(CSc1ccccc1)Nc1ccc(NC(=O)c2ccco2)cc1	6%	20%	-1.9%	1%	3%	-14%	x	4%

Screens from PubChem.
